KCNQ2 block: KCNQ2 potassium channel inhibitors, primary screen, cell-based, CHO-K1, FluxOR thallium flux, B-score (AID 2156); 20 min; hits give low values; only compounds with negative scores are shown here; some inactives read as strong as hits; Potassium voltage-gated channel subfamily KQT member 2 (Rattus norvegicus), O88943; B-score at 10 µM; 310,000 compounds, 1.1% hits;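 active = fluorescence ratio B-score at most minus 3 library SDs, with starting brightness B-score within 2 library SDs, cut at about -5.5 in these data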
Target sequence (O88943 whole entry, looked up): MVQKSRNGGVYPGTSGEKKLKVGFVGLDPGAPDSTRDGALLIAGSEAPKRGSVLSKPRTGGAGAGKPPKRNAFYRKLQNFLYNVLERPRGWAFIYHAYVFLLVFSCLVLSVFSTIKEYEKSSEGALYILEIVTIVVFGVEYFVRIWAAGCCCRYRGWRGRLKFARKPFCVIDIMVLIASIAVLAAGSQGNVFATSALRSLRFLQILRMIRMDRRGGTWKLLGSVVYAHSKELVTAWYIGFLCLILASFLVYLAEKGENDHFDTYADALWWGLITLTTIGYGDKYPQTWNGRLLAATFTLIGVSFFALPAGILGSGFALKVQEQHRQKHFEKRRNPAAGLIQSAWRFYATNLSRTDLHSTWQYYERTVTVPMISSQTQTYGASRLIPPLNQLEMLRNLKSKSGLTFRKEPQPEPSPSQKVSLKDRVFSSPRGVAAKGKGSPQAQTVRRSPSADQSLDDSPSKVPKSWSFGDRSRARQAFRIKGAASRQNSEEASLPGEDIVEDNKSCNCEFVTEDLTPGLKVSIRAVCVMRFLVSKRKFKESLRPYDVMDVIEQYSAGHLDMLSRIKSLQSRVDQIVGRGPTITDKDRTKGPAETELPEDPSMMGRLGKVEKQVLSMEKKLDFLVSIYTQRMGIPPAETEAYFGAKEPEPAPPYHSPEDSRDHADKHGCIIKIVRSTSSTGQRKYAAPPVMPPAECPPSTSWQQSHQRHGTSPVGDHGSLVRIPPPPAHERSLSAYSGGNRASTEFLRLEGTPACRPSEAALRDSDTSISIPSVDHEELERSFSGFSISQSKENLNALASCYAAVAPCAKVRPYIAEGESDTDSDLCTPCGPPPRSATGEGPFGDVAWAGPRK
KCNQ2 block baseline: also measured in KCNQ2 block; calls as there; B-score; measured here: initial fluorescence intensity artifact check;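 brightness before thallium and not channel activity; 0 = typical well and far values either way flag optical interference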
The depositor's hits bear a star; i = inactive. The list is partial; count on the stated rates, not on these rows.

SMILES	KCNQ2 block	KCNQ2 block baseline
CCCn1c(N)c(N(CCOC)C(=O)c2cccc(S(=O)(=O)N3CCCc4ccccc43)c2)c(=O)[nH]c1=O	i	1.75
O=C(c1ccc(C(F)(F)F)cc1)C1CCCN(C(=O)CCc2cnccn2)C1 (configuration not stated)	i	0.11
COC(=O)c1c(NC(=O)c2ccco2)sc2c1C(C(=O)OC)CC2 (configuration not stated)	i	3.4
Cc1ccc(CN(CC2CCCO2)C(=O)CN2C(=O)C(C(C)C)Oc3ccccc32)o1 (configuration not stated)	i	0.37
Cc1nn(-c2ccccc2)c(Cl)c1/C=C1\C(=O)N(C)C(=S)N1C	i	-0.45
Cc1ccc(S(=O)(=O)NCc2ccccc2)cc1C(=O)N1CCCCCCC1	i	2.07
COCCNC(=O)NC(=O)COC(=O)c1cc([N+](=O)[O-])ccc1Sc1nc(C)cs1	i	-0.44
CCOc1cc(Br)cc(/C=C2\SC(=Nc3ccccc3)NC2=O)c1O	i	0.04
CCc1cccc(C)c1NC(=O)C1CCCN1C(=O)NCc1ccccc1 (configuration not stated)	i	0.11
O=C(NNC1CC(=O)N(c2ccc(Cl)cc2)C1=O)c1ccccn1 (configuration not stated)	i	-0.95
O=C(COc1ccc(Cl)cc1)NCc1nnc(SCC(=O)N2CCCc3ccccc32)o1	i	-2.74
CC(C)CC(C(=O)N1CCc2ccccc2C1)N1C(=O)c2ccccc2C1=O (configuration not stated)	-6.53*	0.18*
COc1ccc(NC(=O)NNC(=O)c2cc3occc3n2C)c(OC)c1	i	-0.81
Cc1cccc(N2CCN(c3nnnn3-c3ccccc3)CC2C)c1 (configuration not stated)	i	0.68
CC(=O)Nc1ccc(S(=O)(=O)NC2CC(=O)N(c3ccc(C)cc3)C2)cc1 (configuration not stated)	i	-0.85
CNS(=O)(=O)c1cccc(C(=O)OCC(=O)Nc2sc3c(c2C#N)CCCCC3)c1	i	1.48
CCc1nc(C)c(-c2ccccc2)c(=O)[nH]1	i	-0.35
S=C(NCc1ccccc1)NCc1cccc(CNC(=S)NCc2ccccc2)c1	i	-1.15
CC1(C)C2CCC1(CS(=O)(=O)NCc1ccc(C(F)(F)F)cc1)C(=O)C2 (configuration not stated)	i	-1.9
Cc1ccc(S(=O)(=O)CC(O)COc2ccc(C#N)cc2)cc1 (configuration not stated)	i	0.97
O=S(=O)(Nc1ccc(-c2nc3ccccc3o2)cc1)c1ccccc1	i	1.25
CCc1nnc(NC(=O)CN2CCN(Cc3cccc(Cl)c3)CC2)s1	i	0.94
Cc1cc(C)cc(NC(=O)NC(C)C2CCCO2)c1 (configuration not stated)	i	-0.15
CC#CC[N+](C)(C)CCCCCCCCCCCC	i	1.79
CC(=O)Nc1n[nH]c(S(=O)(=O)Cc2ccc(Cl)cc2Cl)n1	i	0.01

An excerpt from above in order of length of the SMILES, low to high:
SMILES	KCNQ2 block	KCNQ2 block baseline
CC#CC[N+](C)(C)CCCCCCCCCCCC	i	1.79
CCc1nnc(NC(=O)CN2CCN(Cc3cccc(Cl)c3)CC2)s1	i	0.94
CCCn1c(N)c(N(CCOC)C(=O)c2cccc(S(=O)(=O)N3CCCc4ccccc43)c2)c(=O)[nH]c1=O	i	1.75

Next part.
SMILES	KCNQ2 block	KCNQ2 block baseline
COc1ccc(Oc2ccc(S(=O)(=O)N3CCCCC3)cc2S(=O)(=O)N2CCCCC2)cc1	i	0.85
Cc1cc(C)cc(N2C(=O)CC(N(C(=O)c3ccco3)c3cc(C)cc(C)c3)C2=O)c1 (configuration not stated)	i	-0.05
COc1cccc(-n2nnnc2SCC(=O)N2CCCc3ccccc32)c1	i	0.06
COc1ccc(N2CCN(C(=O)CCc3nnc4ccc(N5CCCC5)nn34)CC2)cc1	i	0.13
Cc1cc(NC(=O)Cn2nc3c(cc2=O)CCCC3)ccc1Br	i	3.01
Cc1ccc(-c2nnn(CCC(=O)NC3CCCC3)n2)cc1	i	0.51
O=C(c1ccc2c3c(cccc13)CC2)C1CCCN(C(=O)c2cc[n+]([O-])cc2)C1 (configuration not stated)	i	-0.71
COc1ccc(C(=O)Oc2ccc(F)cc2C(=O)/C=C/c2ccc(OC)c(OC)c2)cc1	i	-0.65
CC(C)(CNC(=O)c1ccc(-c2ccccc2Cl)o1)N1CCOCC1	i	-0.68
CC(C)(O)C#Cc1ccc(CN2CCN(Cc3ccsc3)C(CCO)C2)cc1 (configuration not stated)	i	-0.46
CS(=O)(=O)c1ccc(N2CCOCC2)c(S(C)(=O)=O)c1	i	0.17
CC(C)(C)c1cc(CCC(=O)NCc2cccnc2)cc(C(C)(C)C)c1O	i	0.95
Cc1oc(-c2ccccc2Cl)nc1CN(Cc1ccccn1)C[C@@H]1CCC(=O)N1	i	1.82
COc1ccc(NS(=O)(=O)c2ccc(NC(=S)NC(=O)c3cccnc3)cc2)nn1	i	-1.85
O=C(Oc1ccccc1N1C(=O)C2CCCCC2C1=O)c1ccc(Cl)cc1 (configuration not stated)	i	0.13
Cc1c(Cl)cccc1NC(=O)CCN1CCOCC1	i	0.34
O=C(Cc1c[nH]c2ccccc12)NC1(C(=O)NC2CCCCC2)CCCCC1	i	1.46
Cc1cc(NC(=O)Nc2cccc(C)c2C)no1	i	0.36
Cc1onc(-c2ccccc2Cl)c1C(=O)Nc1ccc2c(c1)OCO2	i	1.3
CC1CCCN(C(=O)c2sc3cc([N+](=O)[O-])ccc3c2Cl)C1 (configuration not stated)	i	-0.5
COc1ccc(CCNC(=S)NC(=O)c2cccc([N+](=O)[O-])c2)cc1OC	i	0.05
CC(=O)N1CCN(CC(=O)Nc2ccc(Cl)c(S(=O)(=O)N(C)C)c2)CC1	i	2.75
Oc1ccc2ccccc2c1-c1sc(Nc2ccccc2)n[n+]1-c1ccc(F)cc1	i	3.18
CC(C)n1nc(C(=O)Nc2cccc(S(=O)(=O)NCc3ccco3)c2)c2ccccc2c1=O	i	0.84
Cc1ccc(-n2c(SCc3ccc([N+](=O)[O-])cc3)nc3ccccc3c2=O)cc1	i	-0.41

Quoted at random: 4 records from the list.
SMILES	KCNQ2 block	KCNQ2 block baseline
CNS(=O)(=O)c1cccc(C(=O)OCC(=O)Nc2sc3c(c2C#N)CCCCC3)c1	i	1.48
Cc1cc(C)cc(NC(=O)NC(C)C2CCCO2)c1 (configuration not stated)	i	-0.15
CCc1nnc(NC(=O)CN2CCN(Cc3cccc(Cl)c3)CC2)s1	i	0.94
COc1ccc(C(=O)Oc2ccc(F)cc2C(=O)/C=C/c2ccc(OC)c(OC)c2)cc1	i	-0.65

Other compounds.
SMILES	KCNQ2 block	KCNQ2 block baseline
COc1ccc(CC(=O)NCc2cccs2)cc1	i	0.52
CCOC(=O)c1c(C)c(C(=O)Nc2ccc3c(c2)OCO3)c(C)n1C	i	-0.54
O=C(Nc1ccccc1N1CCCC1)c1cc(S(=O)(=O)N2CCOCC2)ccc1Cl	-5.9*	-0.6*
CSc1ccccc1C(=O)Nc1nccs1	i	1.67
COc1cc2c(CCNC(C)=O)c[nH]c2cc1O	i	0.39
Oc1c(Br)cc(C2N=C(c3ccccc3Cl)NO2)cc1Br (configuration not stated)	i	-0.86
Cc1ccn2c(/C=N/OCc3cccc(F)c3)c(-c3ccc(Cl)cc3)nc2c1	-7.84*	1.83*
CN(C)CCNC(=O)c1cc2sc3ccccc3c2s1	i	1.65
O=C(c1ccc(NS(=O)(=O)c2cccs2)cc1)N1CCCCC1	i	2.23
CCOC(=O)c1c(-c2ccccc2)c2cc(OC)ccc2n1CCCN(C)C	i	1.15
CC(=O)Nc1ccc(S(=O)(=O)NCC2CCCO2)cc1 (configuration not stated)	i	-1.89
CCOc1ccc(C(=O)N2CCC3(CC2)NCCc2[nH]cnc23)cc1	i	3.25
COC(=O)COc1coc(CN2CCN(c3cccc(Cl)c3)CC2)cc1=O	i	-1.4
COc1ccccc1N1C(=O)C2C3C=CC(CC3)C2C1=O (configuration not stated)	i	0.77
Cc1ccc(C)c(N(CC(=O)N2CCc3ccccc3C2)S(C)(=O)=O)c1	i	-0.24
CCOc1ccccc1C1CC(c2ccccc2)Nc2nc(N)nn21 (configuration not stated)	i	-1.19
COc1ccccc1NC(=O)c1ccc([N+](=O)[O-])cc1[N+](=O)[O-]	i	-0.69
CCOC(=O)C1CCN(Cc2cc(=O)oc3c(C)c(C)ccc23)CC1	i	-2.35
O=C(C1=C[C@H](c2ccc3c(c2)OCO3)C[C@H](OCc2ccc(CO)cc2)O1)N1CCCCCCC1	i	-0.02
C/C(=N\Nc1ncc(Br)cn1)c1cccc([N+](=O)[O-])c1	i	-1.58
CCOc1ccc(-c2ccc(SCC(=O)Nc3nnc(C)s3)nn2)cc1	i	-0.58
Cc1c(C(=O)O)oc2ccc(S(=O)(=O)NCCC3=CCCCC3)cc12	i	0.49
O=C(N/C=C/n1cnc2cc(C(F)(F)F)ccc21)c1ccccc1	i	-0.1
COCc1nnc(SCC(=O)NCc2ccccc2)n1-c1ccccc1	i	0.8
Cc1ccc(-c2nc(CSCC(=O)NCc3cccnc3)c(C)o2)cc1	i	2
Continuation:
SMILES	KCNQ2 block	KCNQ2 block baseline
COC(=O)c1cn(C)c2ccc(S(=O)(=O)N3CCOCC3)cc2c1=O	i	1.14
CCc1cccc(CC)c1NC(=O)C(CC)Sc1nc2ccncc2[nH]1 (configuration not stated)	i	-0.01
Cc1ccc(C)c(NC(=O)C[n+]2ccccc2)c1	i	0.04
Cc1ccccc1-n1nnnc1SCc1csc(-c2ccccc2)n1	i	0.2
COc1ccc(-c2nc3ccccc3c(=O)n2CCOc2cc(C)ccc2C)cc1	i	-1.94
Cc1csc(NC(=O)c2nc(-c3ccccc3)n(-c3ccccc3)n2)n1	i	0.27
COc1ccc(NC(=S)NC2CCN(Cc3ccccc3)CC2)cc1OC	i	0.49
CCCCn1c(-c2cccc(Br)c2)nc2cc3[nH]c(=O)c(C(C)C)nc3cc21	i	0.19
COc1ccccc1N(CC(=O)N1CCCCCC1)S(=O)(=O)c1ccc(C)cc1	i	1.83
Cc1ccc(S(=O)(=O)NCCc2nnc3ccc(NCCCOC(C)C)nn23)cc1	i	-0.75
COCCCNc1ncnc2c1nc1n2CCCC1	i	-0.01
O/N=C(\Cc1cscn1)c1ccc(O)cc1O	i	2.48
Cc1ccc(S(=O)(=O)N2CCN(C(=O)Cc3sc(C)nc3-c3ccc(F)cc3)CC2)c(C)c1	i	0.39
O=C(Cc1ccccc1[N+](=O)[O-])NCCCN1CCOCC1	i	-1.06
COC(=O)c1ccc(Oc2nc(Nc3ccc(C)c(C)c3)nc(N(C)C)n2)cc1	i	-2
COc1cccc(C2c3[nH]c4ccccc4c3C[C@H]3C(=O)N(c4ccccc4C(=O)N4CCCC4C(=O)O)C(=O)N23)c1 (some centres not stated)	i	-0.04
CCOc1ccc(S(=O)(=O)N(C)c2ccc(OCC(=O)NCc3ccco3)cc2)cc1	i	0.34
c1ccc2c(c1)ncn2CCCOc1ccc2c(c1)CCC2	i	0.69
COC(=O)c1c(NC(=O)CSc2nnc(-c3cccnc3)n2Cc2ccco2)sc(C)c1C	i	1.5
CC(=O)Nc1ccc2c(c1)N(C(C)=O)c1ccccc1CC2	i	0.01
O=C(Nc1sc2c(c1C(=O)NC1CCCCC1)CCC2)c1ccco1	i	0.57
O=C(CCS(=O)(=O)c1cccc2nonc12)NCCc1ccccc1	i	-0.13
O=C(Nc1ccc2nc(-c3cccnc3)[nH]c2c1)C12CC3CC(CC(C3)C1)C2	i	-0.07
CCCn1[nH]cc(SC)c(=O)c1=O	i	-0.61
Cc1cc2cc(CN(Cc3ccc4c(c3)OCO4)C(=O)c3cnccn3)c3nnnn3c2cc1C	i	-0.32

Overlap with the part before: 2 entries, then new ones.
SMILES	KCNQ2 block	KCNQ2 block baseline
CCCn1[nH]cc(SC)c(=O)c1=O	i	-0.61
Cc1cc2cc(CN(Cc3ccc4c(c3)OCO4)C(=O)c3cnccn3)c3nnnn3c2cc1C	i	-0.32
COc1ccccc1OC(=O)c1ccc(S(=O)(=O)N(C)C)cc1	i	1.68
O=C(c1cc2c(s1)-c1ccccc1OC2)N1CCN(c2ccccn2)CC1	i	0.02
Cc1ccc(CN(CC(=O)NC2CCCCC2)C(=O)c2csnn2)cc1	i	0.31
O=C(COC(=O)/C=C/c1ccc(Cl)cc1)Nc1ccccc1-c1ccccc1	i	0.03
CSc1cccc(NC(=O)c2cccc3cccnc23)c1	i	0.35
CC(=O)N(/N=C1\Sc2ccccc2C1=O)c1ccccc1C	i	0.37
CSc1ccccc1NC(=S)Nc1cccc(C(F)(F)F)c1	i	-1.55
NC1=NC(c2cn[nH]c2-c2cccc(F)c2)n2c(nc3ccccc32)N1 (configuration not stated)	i	-2.24
Cc1ccc(C)c(NC(=O)NNC(=O)c2cc3occc3[nH]2)c1	i	-0.08
CC(=O)N1CCN(C(=O)CCCNC(=O)c2ccc(Cl)cc2)CC1	i	-2.98
COc1ccccc1CCNC(=O)c1cc(-c2ccncc2)nc2ccc(Br)cc12	i	-0.3
N#Cc1nc(-c2ccco2)oc1N1CCCC1	i	-0.62
CCOc1ccc(NC(=O)C(C)NS(=O)(=O)c2ccc(NC(C)=O)cc2)cc1 (configuration not stated)	i	-1.41
O=C(NC1CCSc2ccccc21)c1c(F)cccc1Cl (configuration not stated)	i	2.12
COc1cc(OC)cc(OC(=O)c2cccc(S(=O)(=O)N3CCN(C)CC3)c2)c1	i	-0.24
Cc1cc(C(=O)COC(=O)c2ccc[nH]c2=O)c(C)n1-c1ccc(Br)cc1	i	0.18
CCCCC(O)(CCCC)C(=O)NN(C(=O)OC)c1ccc(C)cc1	i	2.07
COc1cc(S(=O)(=O)NCC2CCCO2)c(OC)cc1Cl (configuration not stated)	i	-0.22

Bioassay records deposited in PubChem by Johns Hopkins Ion Channel Center.
